Screening data as filed in PubChem BioAssay.
StopGo reporter: FMDV 2A StopGo reporter, luciferase signal; hit rate 1.2% among 410,000; Potency, µM (top dose mostly 57.9 µM), for inactives: at the highest dose signal change, negative = less light; AID 1159524; human cells with a luciferase reporter of 2A StopGo recoding; control for the full effect not named in the record; active = well fitted falling curve with a large enough effect; inconclusive = small, poorly fitted or top-dose-only effect; inactive = no such curve, though single readings can be large or run the other way; tested in HEK293T cells; further: on the % scale 0 is the no-effect control and ±100 the full control effect; nearly all actives have a fitted effect of over 45% in size; luciferase light after 4 h
Marburg entry inh: blocks Marburg virus binding to or entry into cells. Potency, µM (top dose mostly 37.8 µM), for the others: at the highest dose activity change, negative = inhibition, usual class: inhibitors. Marburg virus pseudotyped entry inhibition, cell reporter; control for the full effect not named in the record; about a third of the inactives were read at about 46 µM. hit rate 1.8% among 300,000; active = well fitted inhibition curve with a large enough effect; inconclusive = small, poorly fitted or top-dose-only effect, or effect the other way; inactive = flat fitted curve, though single readings scatter; tested in HEK293 cells; about a fifth of its hits are not listed in these tables; further: on the % scale 0 is the no-effect control and ±100 the full control effect; luciferase read-out
Lassa entry inh: blocks Lassa virus binding to or entry into cells; Lassa virus pseudotype entry inhibition, cell reporter; control for the full effect not named in the record; Potency, µM (top dose mostly 37.9 µM), for the others: at the top dose activity change, negative = inhibition, usual class: inhibitors; hit rate 1.2% among 300,000; AID 540256; active means well fitted inhibition curve with a large enough effect; inconclusive means small, poorly fitted or top-dose-only effect, or effect the other way; inactive means flat fitted curve, though single readings scatter; tested in HEK293 cells; further: on the % scale 0 is the no-effect control and ±100 the full control effect; nearly all actives have a fitted effect of over 50% in size; luciferase read-out
Cruzain inh Det: cruzain (T. cruzi) inhibition with detergent; P25779; purified cruzain, Z-FR-AMC fluorescence, 0.01% Triton; Potency, µM, inactives show max response, negative = inhibition, most hits filed as inhibitors; hit rate 0.43% among 200,000; active means well fitted curve in the direction sought with a large enough effect; inconclusive means small, poorly fitted or top-dose-only effect, or another doubt; inactive means no such curve, though single readings can be large; an effect the other way counts as inactive or inconclusive;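 further: plate controls were neutral wells for no effect and buffer without enzyme for full effect; nearly all actives have a fitted effect of over 40% in size; top concentration of the series not given in the record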
Target sequence (P25779 123-467 limits assumed): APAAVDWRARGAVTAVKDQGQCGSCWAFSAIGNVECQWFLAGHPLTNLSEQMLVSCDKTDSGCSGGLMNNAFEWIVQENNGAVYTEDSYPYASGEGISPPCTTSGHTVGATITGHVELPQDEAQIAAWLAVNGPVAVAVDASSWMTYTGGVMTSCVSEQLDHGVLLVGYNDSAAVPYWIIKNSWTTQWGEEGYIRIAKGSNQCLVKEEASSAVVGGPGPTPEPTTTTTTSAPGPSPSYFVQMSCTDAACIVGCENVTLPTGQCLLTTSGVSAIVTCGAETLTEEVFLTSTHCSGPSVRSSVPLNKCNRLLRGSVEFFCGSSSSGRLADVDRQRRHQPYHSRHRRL
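In this qHTS format, compounds are incubated with 1.5 nM cruzain for 15 min at room temperature before 2 uM Z-FR-AMC is added. Release of AMC is followed at 360/450 nm, and progress is taken as the 60 s fluorescence difference.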
NS1 function inh: inhibitors of influenza NS1 protein function; S. cerevisiae slowed by influenza A NS1, growth recovery by OD600; Potency, µM (titrated, usually from 46.1 µM), without a hit: top-dose activity, positive = more growth; hit rate 0.4% among 270,000; further: actives are rising curves; nearly all actives have a fitted effect of over 50% in size
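Growth recovery, yeast-based: influenza A NS1 expressed in S. cerevisiae causes slow growth, and suppressors are detected by OD600. The parent strain without NS1 is used as positive control.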
SARS PLP yeast: inhibitors of SARS-CoV papain-like protease in yeast; S. cerevisiae expressing SARS-CoV PLpro, growth rescue; control for the full effect not named in the record; Potency, µM (top dose mostly 32.9 µM), for inactives: at the highest dose activity, positive = growth rescue; hit rate 0.19% among 330,000; AID 485353; further: 0% is about no effect; nearly all actives have a fitted effect of over 55% in size; growth read by luminescence after 48 h
RE007 growth inh: less growth of the S. pombe RE007 Vpr strain | S. pombe RE007 Vpr strain, BacTiter-Glo ATP luminescence, 24 h; control for the full effect not named in the record | Potency, µM (series often up to 92.2 µM), for inactives: at the top dose activity change, negative = less growth | hit rate 0.21% among 360,000 | AID 651644; active = well fitted falling curve with a large enough effect; inconclusive = small, poorly fitted or top-dose-only effect; inactive = no such curve, though single readings can be large or run the other way;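 further: on the % scale 0 is the no-effect control and ±100 the full control effect; nearly all actives have a fitted effect of over 50% in size; the assay follows cell death caused by Vpr and the record does not say whether a fall means rescue or toxicity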
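Fission yeast strain RE007, carrying one chromosomally integrated HIV-1 vpr copy, was seeded at OD 0.01 in PMG+AL medium with 23 nL pinned compound. After 24 h at 30 °C and 99% humidity, viability was read by BacTiter-Glo luminescence.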
Cruzain inh noDet: inhibitors of Trypanosoma cruzi cruzain without detergent. purified cruzain, Z-FR-AMC fluorescence, no detergent. P25779. hit rate 2.3% among 200,000. Potency, µM, inactives show max response, negative = inhibition, usual class: inhibitors; active means well fitted curve in the direction sought with a large enough effect; inconclusive means small, poorly fitted or top-dose-only effect, or another doubt; inactive means no such curve, though single readings can be large; an effect the other way counts as inactive or inconclusive;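 further: plate controls were enzyme without inhibitor for no effect and buffer without enzyme for full effect; nearly all actives have a fitted effect of over 40% in size; top concentration of the series not given in the record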
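Purified cruzain at 1.5 nM, pre-incubated 15 min with compound at room temperature in 100 mM sodium acetate pH 5.5, 5 mM DTT, 0.00005% Triton X-100. Reaction started with 2 uM Z-FR-AMC; AMC fluorescence increase over 60 s gives rate.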
The depositor's hits bear a star; ? = inconclusive; · = no result given; & = joins results of further samples; [ ] = another dose, or the depositor's remark. Unless noted, the call rests on the fitted dose curve; in most records, active means well fitted rising curve with a large enough effect; inconclusive means small, poorly fitted or top-dose-only effect; inactive means no such curve, though single readings can be large or run the other way. Potency means the concentration at half of the fitted maximal effect.

SMILES	StopGo reporter	Marburg entry inh	Lassa entry inh	Cruzain inh Det	NS1 function inh	SARS PLP yeast	RE007 growth inh	Cruzain inh noDet
Cc1cccc(OCCCn2c(=O)oc3ccccc32)c1	30%[activator]	28%[46.1 µM]	24%[46.1 µM]	·	-31%	0%	-8%	·
COc1ccc(NC(=O)/C(N=Nc2cc(S(=O)(=O)Nc3ccc(OC)cc3)ccc2OC)=C(\C)O)cc1	2%	·	·	·	5%	-2%	3%	·
CCCc1ccc(-c2csc(NC(=O)Cc3cccs3)n2)cc1	-4%	-11%	?	-3.1%	11%	-8%	34%	?
COc1cc(NC(=O)C2=CC(c3ccco3)=NS(=O)(=O)N2C)cc(OC)c1OC	-8%&-17%	-7%&-7%[46.1 µM]	5%&-7%[46.1 µM]	-4.2%	5%	0%	-13%	10%
Cc1ccc2cc(C)c3nnc(SCC(=O)NCc4ccco4)n3c2c1	17%	-11%	-3%	-2.7%	-9%	-7%	-13%	?
COc1cc(OC)c2c(-c3ccccc3)cc(=O)oc2c1C(CCN1CCCCC1)c1ccc(N(C)C)cc1 (configuration not stated)	-10%	·	·	·	-43%	1%	-10%	·
CCC1=Nc2cc(C(=O)NCC3CCCO3)ccc2Sc2ccc(Cl)cc21 (configuration not stated)	3%	·	·	·	10%	1%	3%	·
Cc1ccc(-n2c3c(c(=O)[nH]c2=O)C(NS(=O)(=O)c2ccc(Cl)cc2)(C(F)(F)F)C(=O)N3)cc1 (configuration not stated)	-5%&-11%	20%[46.1 µM]	-19%[46.1 µM]	-6.6%&-7.9%	6%	3%	-1%	-8%&13%
COc1ccc(C)cc1NC(=S)NNC(=O)c1ccccc1Cl	24%	1%	18%	-0.5%	-12%	?	-15%	4%
O=C(Cc1ccc(F)cc1)Nc1cccc(S(=O)(=O)N2CCCC2)c1	-5%	-13%[46.1 µM]	?	·	·	1%	17%	·
CCC1c2ccc(C)n2CCN1C(=O)Nc1cc(Cl)ccc1OC (configuration not stated)	-4%	8%	10%	-7.7%	10%	2%	-10%	?
CCCn1nnnc1SCC(=O)NCc1ccc2c(c1)OCO2	7%	-15%[46.1 µM]	5%	3.1%	-6%	4%	5%	5%
CCCOC(=O)c1c(NC(=O)c2nc3ncccn3n2)sc(C(=O)OCC)c1C	-5%	?	6%[46.1 µM]	-2.0%	·	·	·	13%
COc1ccc(C2c3c(ccc4ccccc34)Oc3ncn4nc(Cc5ccc(OC)c(OC)c5)nc4c32)cc1 (configuration not stated)	·	·	·	-1.3%	9%	-30%	·	3%
COC(=O)c1ccc(OCC(O)CN2C(=O)c3ccccc3C2=O)cc1 (configuration not stated)	-2%	·	·	·	-4%	0%	-4%	·
Cc1nnc(SCC(=O)N(C(C)C)C(C)C)nc1C	-14%	-4%	10%	-16%	-3%	4%	11%	-4%
Cc1ccccc1CN1CCC(n2nccc2NC(=O)c2cccnc2)CC1	-20%	10%	0%	·	0%	0%	-11%	·
CN(C)C(CNC(=O)CCc1c[nH]c2ccccc12)c1ccccc1 (configuration not stated)	2%	?	7%	·	0%	2%	-7%	·
CCc1cc(C(=O)Nc2cc(S(=O)(=O)N(CC)CC)ccc2N2CCN(C)CC2)sc1C	6%	?	-3%	·	·	-4%	-3%	·
CCc1cccc(OCC(=O)Nc2ccc(S(=O)(=O)Nc3cc(C)nc(C)n3)cc2)c1	54%[activator]	29%[46.1 µM]	3%[46.1 µM]	-4.2%	·	·	·	?
Cc1nnc(NC(=O)CSc2cn(CCNC(=O)c3ccccc3)c3ccccc23)s1	-17%	-40%&-40%	-21%	-3.6%	-37%	-9%	6%	-2%
O=C(CS(=O)(=O)c1c[nH]c2ccccc12)NC1CCCCC1	2%	·	·	3.7%	-1%	-2%	8%	1%
Cc1cccc(NC(=O)CNC(=O)c2ccc(-n3cncn3)c([N+](=O)[O-])c2)c1C	7%	4%[46.1 µM]	18%	·	·	0%	-20%	·
COc1ccc(CNC(=O)/C(C)=C\C(=O)O)cc1	1%	?	0%	·	·	0%	10%	·
CCc1ccc(N=CC23c4ccccc4C(c4ccccc42)C2C(=O)N(c4ccc(OC)cc4)C(=O)C23)cc1 (configuration not stated)	-24%	?	-14%	-5.0%	0%	-9%	-10%	?
CN(C)CCOCCOc1ccc(Cl)c2ccccc12	-28%	?	-1%	·	-3%	-1%	-17%	·
COc1ccc(N(CC(=O)Nc2cccc(N(C)S(C)(=O)=O)c2)S(=O)(=O)c2ccc(F)cc2)cc1	-27%	·	·	·	-9%	0%	-3%	·
CC(=O)NC1=NN(C(C)=O)C(C)(c2cccs2)S1 (configuration not stated)	?	?	?	-2.2%	4%	13%	44%	-1%
COc1ccc(OC)c(S(=O)(=O)Nc2ccccc2C(=O)O)c1	14%	16%	-6%	1.0%	14%	6%	-2%	-6%
Cc1ccc(N(Cc2ccco2)C(=O)c2ccc(N3CCCCC3)c([N+](=O)[O-])c2)cc1	37%[activator]	23µM*	?	-8.9%	26%	-4%	-5%	-18%
CCC(=O)Nc1nn(CC(C)C)c2nc3ccc(C)cc3cc12	-8%	·	·	·	1%	-1%	5%	·
Cc1ccccc1N1CCN(C2CCCN(C(=O)CCC(=O)N(C)C)C2)CC1 (configuration not stated)	-14%	·	·	·	15%	4%	4%	·
CC(C)(C)C(=O)NC1CCN(S(C)(=O)=O)CC1	·	14%	6%	3.3%	2%	-1%	-4%	-11%
O=C1/C(=C\c2ccccc2)SC(=S)N1CCC(=O)N1CCCCC1CCO (configuration not stated)	0%	·	·	·	-19%	-4%	-8%	·
CCn1c(C)c(C2N3CC4(C)CN2CC(C)(C3)C4=O)c2ccccc21 (configuration not stated)	-9%	-12%[46.1 µM]	·	-1.7%	·	·	·	6%
CCOP(=O)(OCC)c1nc(-c2cccc3ccccc23)oc1N1CCOCC1	?	?	?	-6.3%	-7%	-10%	3%	22%
Cc1cc(C)c(NC(=O)Cn2nc(-c3ccccc3)nc2-c2ccccc2)c(C)c1	-6%	?	16%	-2.3%	-3%	11%	0%	-8%
COc1ccccc1Cn1cc(C(=O)c2ccc(Cl)cc2)c(=O)c2ccccc21	0%	?	?	5.7%	·	·	·	42%
Cc1cccc(Nc2nnc(-c3ccc(C)c(S(=O)(=O)NCC4CCCO4)c3)c3ccccc23)c1 (configuration not stated)	35%[activator]	?	?	-8.9%	·	·	·	20%
Cc1cccc(N(CC(=O)N2CCCCCC2)S(C)(=O)=O)c1C	-3%	·	·	·	-1%	1%	17%	·
CCOC(=O)N1CCN(c2cc(C)c(C(C)=O)cc2F)CC1	-6%	-16%	28%	-1.3%	-4%	1%	24%	1%
O=C(NNC(=O)C(Cl)Cl)c1cnn(-c2ccccc2)c1C(F)(F)F	-3%	·	·	·	5%	0%	5%	·
Cc1ccc(OCC(=O)N/N=C\c2cn(Cc3ccccc3)c3ccccc23)cc1C	-2%	-18%	2%	-4.6%	-2%	-6%	3%	?
COc1ccccc1C(=O)Nc1ccc(Oc2nnc(-c3ccc(C)cc3)c3ccccc23)cc1	-22%	-26%	-6%	-3.0%	5%	-6%	-12%	?
COCCn1c(=O)[nH]c2cc(C(=O)NCc3ccccc3Cl)ccc2c1=O	-12%	?	?	-3.9%	·	·	·	-2%
CC(C)(C)Sc1ccc(N)nc1	16%	25%	14%	-1.0%	-9%	-3%	26%	-16%
Cc1ccc(-n2cccc2C(=S)N=P(N(C)C)(N(C)C)N(C)C)cc1	?	?	?	-18%	-48%	-2%	?	-26%
Cc1ccc(SCC(=O)NCCCc2ccccc2)cc1	-15%	19%[46.1 µM]	13%[46.1 µM]	·	-13%	0%	8%	·
COc1cccc(NC(=O)CN(C)C(=O)c2ccc3c(c2)S(=O)(=O)N=C2CCCCCN23)c1	-3%	-6%	5%	·	·	6%	-5%	·
COc1cc2c(C(=O)NCCCN3CCN(c4cccc(Cl)c4)CC3)cn(C)c(=O)c2cc1OC	?	-19%&-19%	9%	4.6%	-1%	-6%	2%	-6%
O=C1CC(Cc2ccc(Br)cc2)C(=O)N1c1ccccc1 (configuration not stated)	-20%	·	·	·	16%	-3%	-11%	·
CCOc1ccc(S(=O)(=O)Nc2ccc(C(=O)NCC3(N4CCCCC4)CCCCC3)cc2)cc1	-5%	?	-5%	·	·	3%	0%	·
O=C1/C(=C/Nc2ccc3c(c2)OCO3)CCc2ccccc21	?	?	1.4µM*	0.0%	-162%	-30%	?	13%
CCc1nnc(NC(=O)CN2C(=O)CCC2=O)s1	-23%	?	-3%	-2.6%	6%	3%	8%	3%
C=COC(=O)NC1CCc2cc(OC)c(OC)c(OC)c2-c2ccc(SC)c(=O)cc21 (configuration not stated)	-5%	-22%	·	·	·	·	3%	·
CCC(C(=O)N/N=C/c1cccnc1)c1ccccc1 (configuration not stated)	31%	15%[46.1 µM]	26%[46.1 µM]	·	0%	-1%	5%	·
COC(=O)Oc1ccc(/C=N/NC(=O)CSCc2ccccc2Br)cc1OC	?	?	?	-0.9%	6%	-32%	-12%	7%
COc1ccc(S(=O)(=O)/N=C2/NC(=O)/C(=C/c3ccco3)S2)cc1	46%[activator]	9%	12%	-14%	-2%	-31%	-8%	-13%
Cc1ccccc1N(C(=O)c1ccco1)C(C(=O)NC1CCCC1)c1cccnc1 (configuration not stated)	-12%	?	2%[46.1 µM]	·	-3%	-1%	-12%	·
Cn1c(=O)c2c(-c3ccccc3)n3c4ccccc4nc(-c4ccccc4)c3c2n(C)c1=O	?	2%[46.1 µM]	?	-1.3%	·	·	·	-2%
CCOc1cc(/C=N/NC(=O)C(N)=O)cc(Br)c1O	-8%	?	?	·	0%	-1%	-5%	·
